Calb biofilm kill = mixtures killing C. albicans biofilm. C. albicans biofilm persisters + clotrimazole, fluorescence viability; primary screen in compound mixtures of four per well. inhibition, % at 7.6 µM. 0.02% of 120,000 active;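 active = inhibition above 30.3% in the primary screen of four-compound pools, then above 30% when the compound was retested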;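 note: compounds exposed to preformed 24 h biofilms for 48 h; the number belongs to the whole pool; some results filed as inactive read as strong as hits; inactives centre near 12; 0% = biofilm with clotrimazole alone and 100% = kill control; retested singly at about 60 µM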
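Test system: C. albicans biofilms. Buffer or medium: RPMI/MOPS medium, pH 7.0. Timing: 48 h compound exposure at 37 °C. Technique: Alamar Blue fluorescence. Evaluation: percent inhibition of biofilm viability.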
An asterisk follows results filed as active. Not all compounds are listed; the hit share may differ from the screen's.

Preview, 5 compounds:
Screening CCCc1ccc(-c2cc(C(=O)Nc3ccc([N+](=O)[O-])cn3)c3ccccc3n2)cc1 returned Calb biofilm kill 11.
`COc1cccc(C(=O)O/N=C(\N)Cc2ccc(Cl)cc2)c1` gave Calb biofilm kill 7.
Screening C/C(=N\Nc1ccc(S(N)(=O)=O)cc1[N+](=O)[O-])c1ccccc1O returned Calb biofilm kill 13.
`CC(=O)N(c1ccccc1)C1CCCC1` gave Calb biofilm kill 6.
For Cc1nnc2n1N=C(c1ccc3c(c1)NC(=O)CO3)CS2 the results were Calb biofilm kill 22.

This part in full, from the first entry:
Screening CCCc1ccc(-c2cc(C(=O)Nc3ccc([N+](=O)[O-])cn3)c3ccccc3n2)cc1 returned Calb biofilm kill 11.
`COc1cccc(C(=O)O/N=C(\N)Cc2ccc(Cl)cc2)c1` gave Calb biofilm kill 7.
Screening C/C(=N\Nc1ccc(S(N)(=O)=O)cc1[N+](=O)[O-])c1ccccc1O returned Calb biofilm kill 13.
`CC(=O)N(c1ccccc1)C1CCCC1` gave Calb biofilm kill 6.
For Cc1nnc2n1N=C(c1ccc3c(c1)NC(=O)CO3)CS2 the results were Calb biofilm kill 22.
`COc1cc(OC)c(C(=O)NNC(=S)NC2CCCCC2)cc1OC` gave Calb biofilm kill 14.
`CCOc1cc(C(=O)Nc2ccc(C)cc2C)ccc1OCC(=O)N1CCCCC1` gave Calb biofilm kill 16.
`Cc1cccc(N2C(=O)CC(Sc3nnc(C)s3)C2=O)c1` (stereo not given) gave Calb biofilm kill 6.
`COc1ccc(Nc2nnc(-c3ccc(O)cc3)c3ccccc23)cc1` gave Calb biofilm kill 15.
O=C1c2ccccc2CC1(Cc1ccccc1)Cc1ccccc1 was read as Calb biofilm kill 17.
Screening CCOC(=O)C(C)Sc1nc(-c2ccccn2)ncc1OC (stereo not given) returned Calb biofilm kill -3.
`CC(C)N(CC#CC(O)(c1ccccc1)c1ccccc1)CCO` gave Calb biofilm kill 5.
Screening COc1cc(OC)c(C(=O)Nc2ccccc2-c2ccccc2)cc1OC returned Calb biofilm kill 19.
For Cc1noc(C)c1COc1cccc(C(=O)OCC(=O)NC(=O)c2ccc(OC(F)F)cc2)c1 the results were Calb biofilm kill 0.
Screening CCCCOc1ccc(C(=O)NNC(=S)NC(=O)CC)cc1 returned Calb biofilm kill 14.
CCn1c(CCNC(=O)c2ccc(C)cc2)nnc1SCc1ccc(Cl)c(Cl)c1 was read as Calb biofilm kill 13.
Screening CC(=O)Oc1c(C(=O)c2nnc(C)o2)c(=O)n(C)c2ccccc12 returned Calb biofilm kill 4.
`Cc1ccc(N/C(N)=N/c2nc(CSc3nnc(C)s3)cc(=O)[nH]2)c(C)c1` gave Calb biofilm kill -18.
`CCCOC(=O)CC1C(=O)NCCN1C(=O)OC(C)(C)C` (stereo not given) gave Calb biofilm kill 20.
CC(C)N(C(=O)C[n+]1ccc(/C=N/O)cc1)C(C)C was read as Calb biofilm kill 6.

The final two compounds of the section above come first, to join the parts.
`CCCOC(=O)CC1C(=O)NCCN1C(=O)OC(C)(C)C` (stereo not given) gave Calb biofilm kill 20.
CC(C)N(C(=O)C[n+]1ccc(/C=N/O)cc1)C(C)C was read as Calb biofilm kill 6.
CN(CC(=O)Nc1ccccc1C(F)(F)F)C(=O)COc1ncnc2sccc12 was read as Calb biofilm kill 19.
For CCn1c(=O)c(C(=O)NNS(=O)(=O)c2ccc(Br)cc2)c(O)c2ccccc21 the results were Calb biofilm kill -6.
For CC(C)(C)C(=O)NNC(=O)COc1ccc2ccccc2c1Br the results were Calb biofilm kill 11.
Screening O=C1CNC(=O)N1CC(O)Cn1c2ccccc2c2ccccc21 (stereo not given) returned Calb biofilm kill 15.
Screening CCSc1nnc(NS(=O)(=O)c2ccc(OC)cc2)s1 returned Calb biofilm kill 12.
`COc1ccc(CN2CCN(c3ccccn3)CC2)c(OC)c1C` gave Calb biofilm kill 2.
Cc1ccc(-c2ccc(SCC(=O)Nc3cc(C)on3)nn2)cc1 was read as Calb biofilm kill 13.
For NC(=O)C[n+]1cccc(C(N)=O)c1 the results were Calb biofilm kill 4.
Screening Cc1ccc(S(=O)(=O)N2CCCCC2)cc1NC(=O)CSc1nccn1C returned Calb biofilm kill 12.
CCOC(=O)C1=C(C)Nc2ccccc2N=C1NC(=O)Cc1ccc(Cl)c(Cl)c1 was read as Calb biofilm kill 4.
Cc1ccc(/C=N/NC(=O)CSc2nc3ccccc3c(=O)n2-c2ccccc2)s1 was read as Calb biofilm kill 22.
Cc1cccc(NC(=S)NCCCN2CCOCC2)c1 was read as Calb biofilm kill 22.
Screening S=c1[nH]nc(COc2ccccc2)n1Cc1ccccc1 returned Calb biofilm kill 13.
Cc1c(CBr)[n+](=O)c2c(n1[O-])C(Br)CCC2Br (stereo not given) was read as Calb biofilm kill 25.
Screening CCOC(=O)C1CCCN(Cc2cc(=O)oc3cc(C)c(C)cc23)C1 (stereo not given) returned Calb biofilm kill 17.
S=C1NC2(CCCC2)Nc2ccccc21 was read as Calb biofilm kill 17.
Screening S=C(NCCc1ccccc1)Nc1cccc2cnccc12 returned Calb biofilm kill 17.
CCOC(=O)c1sc(=NC(=O)c2ccc(OC(C)C)cc2)n(C)c1C was read as Calb biofilm kill 15.
C/C(=N\NC(=O)CSc1nc(C)cc(C)n1)c1cccs1 was read as Calb biofilm kill 14.
For CCN(C(=O)CSc1nnc2nc(C)cc(C)n12)c1ccccc1 the results were Calb biofilm kill 7.

Looked up by compound from the list above, 3 records:
S=C1NC2(CCCC2)Nc2ccccc21 was read as Calb biofilm kill 17.
Screening S=C(NCCc1ccccc1)Nc1cccc2cnccc12 returned Calb biofilm kill 17.
Cc1c(CBr)[n+](=O)c2c(n1[O-])C(Br)CCC2Br (stereo not given) was read as Calb biofilm kill 25.

(list continues)
CC(C)(C)c1ccc(OCc2ccc(C(=O)N/N=C/c3ccc(O)c(O)c3)cc2)cc1 was read as Calb biofilm kill 17.
For O=C(C1=C[C@H](c2ccc(C(F)(F)F)cc2)C[C@H](OCCCCO)O1)N1CCN(Cc2ccc3c(c2)OCO3)CC1 the results were Calb biofilm kill 21.
Screening C=CCC1Cc2c(cccc2[N+](=O)[O-])C(CC=C)N1 (stereo not given) returned Calb biofilm kill 24.
Screening COC(C(=O)N/N=C(\C)CC(=O)Nc1ccc(N(C)C)cc1)c1ccccc1 (stereo not given) returned Calb biofilm kill 9.
Cc1ccc(C(=O)N2CC(C)OC(C)C2)cc1[N+](=O)[O-] (stereo not given) was read as Calb biofilm kill 22.
For Cc1ccc(C(=O)Nc2ccc(C(=O)O)cc2)cc1S(=O)(=O)Nc1cccc([N+](=O)[O-])c1 the results were Calb biofilm kill 14.
CC1=CC2=NC(=O)CC(C)(C(=O)N(CC(=O)NC(C)(C)C)Cc3ccccc3)N2C=C1 (stereo not given) was read as Calb biofilm kill -3.
For Cc1c(C(=O)NN)[nH]c2ccc([N+](=O)[O-])cc12 the results were Calb biofilm kill 29.
CN(C(=O)c1cc2c(s1)-c1ccccc1S(=O)(=O)C2)c1ccccc1F was read as Calb biofilm kill 29.
Screening O=C(N/N=C/C1CC=CCC1)c1cc(Br)ccc1O (stereo not given) returned Calb biofilm kill 8.
For O=C(CSc1nc2ccc([N+](=O)[O-])cc2[nH]1)NC1CCCC1 the results were Calb biofilm kill 10.
Screening CCc1ccccc1NC(=S)N=Nc1c(O)n(C)c2ccc(S(=O)(=O)N3CCOCC3)cc12 returned Calb biofilm kill 14.
CN(C)S(=O)(=O)N1CCCC(C(=O)c2ccc(C(F)(F)F)cc2)C1 (stereo not given) was read as Calb biofilm kill 16.
`O=C(CSc1nc(-c2ccc(F)cc2)cs1)Nc1ccccn1` gave Calb biofilm kill 16.
O=C1C=C(N2CCOCC2)C2(CCCCC2)O1 was read as Calb biofilm kill 11.
COc1ccc(-c2csc3nc(-c4ccccc4F)oc(=O)c23)cc1 was read as Calb biofilm kill 7.
Cc1cccc(NC(=O)N2CCN(Cc3ccccc3)CC2)c1 was read as Calb biofilm kill 13.
Cc1cc(C)nc(NS(=O)(=O)c2ccc(NC(=O)C3COc4ccccc4O3)cc2)n1 (stereo not given) was read as Calb biofilm kill 8.
`O=CN1CCN(C(=O)c2ccc(-c3nc4ccccc4s3)s2)CC1` gave Calb biofilm kill 16.
`CC(=O)Nc1cccc(C(=O)/C=C/c2ccc(Br)cc2)c1` gave Calb biofilm kill 9.

Brought forward from above: 3 entries; new compounds follow.
Cc1cc(C)nc(NS(=O)(=O)c2ccc(NC(=O)C3COc4ccccc4O3)cc2)n1 (stereo not given) was read as Calb biofilm kill 8.
`O=CN1CCN(C(=O)c2ccc(-c3nc4ccccc4s3)s2)CC1` gave Calb biofilm kill 16.
`CC(=O)Nc1cccc(C(=O)/C=C/c2ccc(Br)cc2)c1` gave Calb biofilm kill 9.
Screening Cc1cc(C)n2nc(-c3ccco3)nc2n1 returned Calb biofilm kill 13.
Screening COc1ccc(CCNC(=O)COC(=O)/C=C/c2ccc(OCC#N)c(OC)c2)cc1 returned Calb biofilm kill 6.
`CCOc1cc(C2C3=C(CC(C)(C)CC3=O)OC3=C2C(=O)CC(C)(C)C3)cc([N+](=O)[O-])c1O` gave Calb biofilm kill 18.
CC(C)(C)NC(=O)C(c1cccnc1)N(C(=O)c1ccc(Cl)nc1)C1CCCC1 (stereo not given) was read as Calb biofilm kill 15.
Screening COc1ccc(NC(=O)CSCCc2ccccn2)cc1OC returned Calb biofilm kill 12.
For CC(=O)c1cccc(Nc2cc(C)nc3ccc(C)cc23)c1 the results were Calb biofilm kill 15.
For Cc1ccc(NC(=O)CCCCCNS(=O)(=O)c2ccc(C)cc2)cc1 the results were Calb biofilm kill 9.
O=C(NNc1nc(-c2ccc(F)cc2)cs1)c1ccccc1 was read as Calb biofilm kill 5.
For S=c1[nH]c2cc3c(cc2[nH]1)OCCO3 the results were Calb biofilm kill 29.
For Cc1ccccc1-c1noc(-c2ccccc2C(=O)O)n1 the results were Calb biofilm kill -6.
For CC1(C)C(=O)OC(c2cc(Br)ccc2O)C(C)(C)C1=O (stereo not given) the results were Calb biofilm kill 13.
Screening O=C(O)CC/C(=C\c1cc([N+](=O)[O-])ccc1Cl)c1nc2ccccc2s1 returned Calb biofilm kill 11.
O=C(Nc1ccc(O)c2c(=O)cc(-c3cccc(Cl)c3)oc12)c1ccc(F)cc1 was read as Calb biofilm kill 4.
Screening COc1ccc(C(=O)NCC2(c3ccccc3)CCOCC2)cc1[N+](=O)[O-] returned Calb biofilm kill 15.
`O=C(NC(=S)NCCC1=CCCCC1)c1cncc(Br)c1` gave Calb biofilm kill 13.
CC(C)(C)NC(=O)NC(=O)CN1CCCc2ccccc21 was read as Calb biofilm kill 12.
Screening Cc1cc(C(=O)NN=C(Cc2ccccc2)Cc2ccccc2)c(C)o1 returned Calb biofilm kill 4.
`Cc1cc(-c2ccc3ccccc3c2)n2ncnc2n1` gave Calb biofilm kill 27.
Screening O=C(CSc1nnc(SCc2ccc(Cl)cc2)s1)c1ccc2c(c1)OCO2 returned Calb biofilm kill 9.
For CCOCCCNC(=O)C(c1ccc(C)cc1)N(Cc1cccs1)C(=O)CNC(C)=O (stereo not given) the results were Calb biofilm kill 13.
Screening CC1=NN(c2ccccc2)C(=O)/C1=C\c1cn(CCC#N)nc1-c1ccc(Cl)cc1 returned Calb biofilm kill 11.
`Cc1cc(-c2ccccc2)nc(Cl)c1C#N` gave Calb biofilm kill 23.
`Cn1c(O)c(C=NCC2CCNCC2)c(=O)n(C)c1=O` gave Calb biofilm kill 9.
COc1ccc(NC(=O)C(Sc2nnc(-c3ccncc3)n2-c2ccccc2C)c2ccccc2)cc1Cl (stereo not given) was read as Calb biofilm kill -4.
Cc1ccc(OCc2n[nH]c(=S)n2-c2ccccc2)cc1C was read as Calb biofilm kill 16.
For CC(=O)Oc1ccc2c(=O)c(-c3nc4ccccc4s3)coc2c1 the results were Calb biofilm kill 15.
`O=C(/C=C(/c1ccc(Cl)cc1)n1cncn1)c1ccccc1` gave Calb biofilm kill 10.
Screening CCC(C)NCCOCCOc1ccc(Cl)cc1Br (stereo not given) returned Calb biofilm kill -28.
Clc1ccc(OCCCN2CCCC2)cc1Cl was read as Calb biofilm kill 14.
Screening Cc1c(N(C(=O)CNC(=O)c2ccccc2)C2(C(=O)NC3CCCC3)CCCCC2)c(=O)n(-c2ccccc2)n1C returned Calb biofilm kill 3.
C=CCn1c(C)nc2c(sc3nc4c(cc32)COC(C)(C)C4)c1=O was read as Calb biofilm kill -6.
`O=C(CCCN1C(=O)/C(=C/c2ccccc2Cl)SC1=S)NNC(=O)c1ccc(Cl)cc1` gave Calb biofilm kill 17.
`Cc1ccc(S(=O)(=O)N2c3ccc(S(N)(=O)=O)cc3CC2C)cc1` (stereo not given) gave Calb biofilm kill 5.
`C=CCN1CC(O)=C(c2nc3ccccc3[nH]2)C1=N` gave Calb biofilm kill 6.
COc1cccc(C(=O)N2CCOCC2)c1OC was read as Calb biofilm kill 9.
Screening CCNc1ccc(P(=O)(c2ccccc2)c2ccccc2)cc1 returned Calb biofilm kill 8.
Screening Cc1cc(C)c(NC(=S)N(C)C)c(C)c1 returned Calb biofilm kill 13.
For CC(C)(C)c1cc(C(=O)O)n(Cc2ccc(Cl)cc2Cl)n1 the results were Calb biofilm kill 22.
Cc1cc(C)cc(NC(=O)COC(=O)CCc2ccc(S(=O)(=O)N3CCOCC3)cc2)c1 was read as Calb biofilm kill 10.
`CC(NS(=O)(=O)c1ccc2c(c1)OCCO2)c1ccccc1` (stereo not given) gave Calb biofilm kill 12.
`Cc1ccc(/C=N/NC(=O)CSc2nc3ccccc3s2)o1` gave Calb biofilm kill 5.
CCOC(=O)c1sc(=S)n(-c2ccccc2)c1NC(C)=O was read as Calb biofilm kill 29.
Screening COc1ccc(C2CC(=O)c3c([nH]c(C(=O)OC(C)C)c3C)C2)cc1OC (stereo not given) returned Calb biofilm kill -5.
`Cc1[nH]c(=O)[nH]c(=O)c1N1CCOCC1` gave Calb biofilm kill 2.
COC(=O)C1CCN(C(=O)Nc2ccccc2)CC1 was read as Calb biofilm kill 13.

Assay outcomes (PubChem)
